# Screening data (PubChem BioAssay)
# eIF4H FP inh – human eIF4H binding inhibitors, primary screen, translation initiation inhibitor project, biochemical, uHTS, fluorescence polarization; Eukaryotic translation initiation factor 4H (Homo sapiens), Q15056; eIF4H fluorescence polarization binding assay; inhibition, % at 35 µM; actives 0.94% (n = 290,000); AID 2012, 2009;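 active means 50% or more with normal probe brightness, or confirmed in later tests; about a fifth of its hits are not listed in these tables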;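 further: calls also rest on retests at 20 µM and on dose response follow-up; 0% = protein and probe with vehicle and 100% = probe without protein; strong numbers were not always called active; many hits fall short of the cut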
# PABP FP inh – PABP poly(A) RNA binding inhibitors, primary screen, biochemical, fluorescence polarization, uHTS. actives 1% (n = 290,000). Polyadenylate-binding protein 1 (Homo sapiens), P11940. inhibition, % at 35 µM;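 active means 50% or more with normal probe brightness, or confirmed in later tests; about a fifth of its hits are not listed in these tables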;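 further: calls also rest on retests at 20 µM and on dose response follow-up; controls were probe without protein and protein plus probe with vehicle; some compounds called inactive have numbers as strong as hits; many hits fall short of the cut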
# MT1-MMP act inh – blockers of MT1-MMP proenzyme processing, primary screen, HT1080 RFP-PRO-GFP cells, GFP/RFP fluorescence | Matrix metalloproteinase-14 (Homo sapiens), P50281 | GFP/RFP ratio fluorescence, overnight; percent of plate control window, DMSO zero | GFP/RFP ratio change, % at 20 µM | actives 0.061% (n = 360,000) | AID 651647, 2012;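 active means GFP/RFP ratio change of at least 30% with cell ATP level not reduced by more than half and red fluorescence within 50% of control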; further: strong numbers were not always called active
#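 Assay system: HT1080 RFP-PRO-GFP cells | Dosing: 20 µM single dose, 1% DMSO | Incubation: Cells overnight before dosing, compound overnight, 37 °C, 5% CO2 | Evaluation: GFP/RFP fluorescence ratio | Control set: DMSO-only wells and HT1080 RFP-L50D-GFP cell wells as references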
# Yeast UUG start – modulators of yeast start codon fidelity, primary screen, whole organism, S. cerevisiae, single point, plate reader; S. cerevisiae UUG-firefly luciferase reporter, luminescence/redox ratio; activity score, % at 18.7 µM; actives 0.13% (n = 350,000);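 active means replicate mean at a twofold rise or more, about +100% in these data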;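 further: firefly luciferase made from a UUG start codon reports start codon fidelity; reporter light over untreated wells divided by growth signal over untreated wells; some hits fall short of that in this replicate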
# Env fusion inh – inhibitors of HIV-1 Env-driven cell-cell fusion, primary screen, HeLa-JRFL effector, CEM21 target cells, luciferase; inhibition, % at 12.3 µM; actives 1.1% (n = 360,000);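 active means mean replicate inhibition score of at least 50 and every replicate individually at or above 50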;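 further: 0% = plate neutral controls and 100% = maraviroc near 300 nM; one replicate is shown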
# Rce1 inh – yeast Rce1p protease inhibitors, primary screen, biochemical, fluorescence, cell-free homogeneous; yeast membranes, quenched prenylated peptide cleavage fluorescence; calls only; actives 0.27% (n = 290,000); AID 2563, 2010;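 active means fall in fluorescence gain of 50% or more versus controls, with final raw signal at or below 3038400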;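 further: plate controls were neutral control wells for no effect and wells lacking membranes for full effect; tested at 10 µM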
# Target sequence (Q03530 whole entry, looked up): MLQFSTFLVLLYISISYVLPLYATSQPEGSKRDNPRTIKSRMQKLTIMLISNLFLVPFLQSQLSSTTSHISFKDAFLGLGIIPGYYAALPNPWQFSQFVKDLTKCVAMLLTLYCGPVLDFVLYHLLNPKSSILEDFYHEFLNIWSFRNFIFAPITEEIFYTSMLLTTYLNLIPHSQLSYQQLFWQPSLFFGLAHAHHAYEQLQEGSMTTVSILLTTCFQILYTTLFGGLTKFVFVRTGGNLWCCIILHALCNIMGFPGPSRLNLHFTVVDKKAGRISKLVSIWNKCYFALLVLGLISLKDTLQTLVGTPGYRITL
# CSC inhib – cancer stem cell viability inhibitors, primary screen, luminescence | AID 2717, 2010 | cancer stem cell-like cells viability | inhibition, % at 7.5 µM | actives 1.1% (n = 300,000);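 active means mean at 75% or more and at least half the replicates too; tested in HMLE shEcad cells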;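 further: 0% = median of negative and 100% = median of positive control wells; the first replicate is given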
# eIF4H FP inh retest – also measured in eIF4H FP inh; calls as there; inhibition, %; compound at 20 µM; confirmation average;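 mean of two retest wells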
# PABP FP inh retest – second read-out of PABP FP inh, no call of its own (marks repeat the call); inhibition, %; compound at 20 µM; confirmation repeats;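 mean of two retest wells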
# MT1-MMP act inh RFP – recorded beside MT1-MMP act inh, whose call it bears; RFP signal change, %; measured here: RFP expression control read;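 0 = vehicle wells; hits needed this value within 50% of zero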
# The depositor's hits bear a star; i = inactive; . = not tested or not shown. A portion of the library (hit frequency here may not be typical).
SMILES,eIF4H FP inh,PABP FP inh,MT1-MMP act inh,MT1-MMP act inh RFP,Yeast UUG start,Env fusion inh,Rce1 inh,CSC inhib,others
O=C(Nc1ccc(Cl)cn1)c1cc2ccccc2o1,-10,3,3,-1,-35,.,i,.,
CCOC(=O)c1cnc(-n2nc(C)cc2C)nc1NCc1ccccc1,-8,-9,-2,-15,-22,-72,i,18,
CCOc1cc(N2CCOCC2)c(OCC)cc1NC(=O)c1ccc(F)c(S(=O)(=O)N2CCOCC2)c1,.,.,-4,-1,-10,-45,.,.,
COc1cccc(-c2nc(CS(=O)CC(=O)NCc3ccccc3)c(C)o2)c1 (configuration not stated),-6,1,4,3,1,17,i,-8,
N#C/C(=C\c1c(Oc2ccc(Cl)cc2)nc2ccccn2c1=O)C(=O)NC1CCS(=O)(=O)C1 (configuration not stated),5,3,-1,0,-14,-71,i,-6,
COc1ccc(CNCCS(=O)(=O)NN2CCOCC2)cc1,.,.,4,9,-18,6,.,.,
Nc1ccc(CC(N)c2csc(Nc3nncc4ccccc34)n2)cc1 (configuration not stated),.,.,-1,1,-2,-60,.,.,
Cc1c(C(=O)O)nn(-c2cccc(C(F)(F)F)c2)c(=O)c1C#N,0,12,-7,1,8,3,i,-7,
CC1CC(C)CN(C(=O)c2ccc(S(=O)(=O)N3CCCCC3)cc2)C1 (configuration not stated),12,10,-9,-6,9,17,.,9,
CN(C(=O)c1cccc(N2C(=O)C3CC=CCC3C2=O)c1)C1CCCCC1 (configuration not stated),.,.,-4,0,-1,-45,i,-9,

# Among those listed so far, 2 have a Cl atom.
SMILES,eIF4H FP inh,PABP FP inh,MT1-MMP act inh,MT1-MMP act inh RFP,Yeast UUG start,Env fusion inh,Rce1 inh,CSC inhib,others
O=C(Nc1ccc(Cl)cn1)c1cc2ccccc2o1,-10,3,3,-1,-35,.,i,.,
N#C/C(=C\c1c(Oc2ccc(Cl)cc2)nc2ccccn2c1=O)C(=O)NC1CCS(=O)(=O)C1 (configuration not stated),5,3,-1,0,-14,-71,i,-6,

# Next structures follow.
SMILES,eIF4H FP inh,PABP FP inh,MT1-MMP act inh,MT1-MMP act inh RFP,Yeast UUG start,Env fusion inh,Rce1 inh,CSC inhib,others
CCOC(=O)c1c(S(=O)(=O)NCC(=O)Nc2ccc(C)cc2)c(C)n(C)c1C,0,7,0,2,-13,13,i,-7,
O=C(OCc1nnc(-c2ccc(Cl)cc2)o1)C12CC3CC(CC(O)(C3)C1)C2,9,2,1,0,.,-33,i,-4,
CN1CCc2nc(NC(=O)c3cccc(OC(F)F)c3)sc2C1,74*,83*,-1,4,.,.,i,8,
CCN(Cc1ccc(OC)c(F)c1)C(=O)CCl,4,-8,-3,-1,.,21,i,-13,
O=C(CSCc1c(F)cccc1Cl)NCCc1ccccc1,0,0,1,-4,-8,4,i,9,
Cc1ccc(NC(=O)CCNS(=O)(=O)c2ccccc2)c(C(=O)c2ccccc2)c1,-7,2,0,0,0,-23,i,.,
CCCCN(C(=O)CSc1nnc(-c2ccco2)o1)c1c(N)n(Cc2ccccc2)c(=O)[nH]c1=O,-11,2,1,0,-3,4,.,-1,
O=C(Nc1cccc(C(F)(F)F)c1)C1CCCO1 (configuration not stated),2,0,0,3,.,2,i,-1,
Cc1nn(CC(C)C)c(Cl)c1C(=O)N(C)CC(=O)Nc1ccc(Cl)cc1,.,.,0,1,-4,7,.,.,
Cc1cccc(OCC(=O)OCC(=O)c2c(N)n(C)c(=O)n(C)c2=O)c1,-5,-8,6,9,7,.,i,-21,
CCCCN(C(=O)CSCC(=O)Nc1ccc(C)cc1)c1c(N)n(CC(C)C)c(=O)[nH]c1=O,.,.,2,0,-7,1,.,.,
COCC(=O)N(C)C[C@H]1N[C@@](Cc2ccccc2)(C(=O)OC)[C@H]2C(=O)N(Cc3ccccc3)C(=O)[C@@H]12,.,.,3,4,2,.,.,-24,
NC(=O)C1CCN(C(=O)c2cc3c(s2)CCCC3)CC1,.,.,3,5,-22,-41,i,7,
COc1ccccc1CNC1CCN(Cc2ccccc2)CC1,22,2,.,.,-2,-64,i,-11,
CSc1ccc(S(=O)(=O)NCC(=O)OCC(=O)NC2(C#N)CCCCC2)cc1[N+](=O)[O-],.,.,-2,5,7,-11,i,-3,
Cc1ccccc1C(=O)Nc1ccc(N2CCCC2)cc1,-4,-5,-1,2,-11,-24,i,-2,
CC(C)Cc1nc2oc3c(NCC(C)O)ncnc3c2c2c1CCCC2 (configuration not stated),-12,6,9,-6,6,0,i,-7,
CC1=C(CCN2CCN(C(C)C)C(CCO)C2)C(C)(C)CCC1 (configuration not stated),-2,3,1,-3,0,11,i,-7,
CCS(=O)CCSC(=N)N (configuration not stated),-6,5,0,6,-14,.,i,-18,
NC(=O)c1ccccc1N/C=C1\CCCCC1=O,1,-6,-1,3,.,-1,i,11,
O=C(OCc1nc2ccccc2s1)c1cnccn1,-3,4,13,10,.,.,i,0,
CC(C)(C)c1ccc(C(=O)N2[C@H](COCc3ccccc3)C=CS2(=O)=O)cc1,.,.,2,-1,-3,-27,.,.,
O=C(CCc1nnc(CCCCc2ccccc2)o1)NCCCc1cccnc1,-7,-10,0,-1,.,-5,i,-11,
COc1ccc(-n2c(N)c(C(=O)NCc3ccco3)c3nc4ccccc4nc32)cc1OC,33,-1,-8,3,.,61,i,2,
Cc1cc(C)c(NC(=O)CSc2nnc(CN3CCOCC3)n2C)c(C)c1,-7,-2,-3,-3,-6,-7,i,-11,
CCCn1c(CN2CCN(C(=O)OCC)CC2)nc2cc([N+](=O)[O-])ccc21,4,-3,-1,-3,-12,33,i,-8,
CCc1ccc(Nc2n[n+](-c3ccccc3)c(-c3ccc(OC)c(Br)c3)s2)cc1,0,8,4,-4,-12,-67,i,24,
CCOC(=O)CNC(=O)C1(/C=C/c2ccccc2)CC(=O)N1c1ccc(C)cc1 (configuration not stated),-9,-3,-3,-2,-23,9,i,-6,
CCc1ccccc1NC(=O)CN(C)Cc1nc(N)nc(Nc2ccccc2C)n1,-5,-2,0,1,-20,-44,i,-13,
CC(C)OC(=O)c1nn2c(C(F)(F)F)cc(-c3ccc(Br)o3)nc2c1Br,44*,72*,-95,2,.,23,i,-2,eIF4H FP inh retest=64*;PABP FP inh retest=66*
CCc1ccc2nc(NC(=O)C3CSC4(C)CCC(=O)N34)sc2c1 (configuration not stated),.,.,-2,4,-8,-42,i,14,
Nc1ccn(Cc2cccc(Cl)c2)n1,-5,-9,-2,2,.,3,i,-3,
CC[N+](CC)(CC)CCOc1cccc(OCC[N+](CC)(CC)CC)c1OCC[N+](CC)(CC)CC,.,.,-2,0,-12,.,.,-18,
COc1ccc(OC)c(Nc2nc(-c3sc(C)nc3C)cs2)c1,-8,-6,4,1,1,-60,i,21,
C=CCn1c(NC(=O)c2ccc(Br)o2)c(C(=O)OCC)sc1=S,-1,10,1,6,3,.,.,.,
COc1ccc(/C=C/C(=O)OCC(=O)NCCC2=CCCCC2)cc1OC,-9,3,-1,-1,.,10,i,.,
COc1ccc(/C=N/Nc2cc(C)nc3ccc(OC)cc23)c(OC)c1,-15,4,-16,-21,-22,-29,i,101*,
CC(C)(C)NC(=O)CSc1ccc(C(C)(C)C)cc1,-1,2,1,0,-3,28,i,-5,
C/C(CCC(=O)O)=N/Nc1ccc([N+](=O)[O-])cc1[N+](=O)[O-],-1,3,7,-1,-13,-7,i,19,
Cc1cc(NS(=O)(=O)c2ccc(NC(=S)Nc3ccc(Cl)cc3C)cc2)no1,10,5,3,5,.,-2,i,-2,
CCOC(=O)c1cnc(SC)nc1Oc1cccc(NS(=O)(=O)c2ccc(Cl)cc2)c1,3,19,-8,-11,-4,-34,i,32,
Fc1ccc(CN2CCN3CCCC3C2C2CCCCC2)cc1F (configuration not stated),-4,5,-1,6,5,.,.,-3,
O=C(CN1CCN(c2ccc(Cl)cc2)CC1)N1CCCC1,-10,-12,-1,-2,-17,.,i,-21,
C[C@@H]1CN([C@H](C)CO)C(=O)CCCn2nncc2CO[C@@H]1CN(C)C(=O)Nc1cccc2ccccc12,.,.,0,1,-5,6,.,.,
C/C(=N\n1nnnc1Nc1ccccc1)c1ccc(N)cc1,-4,-3,.,.,.,.,i,-6,
Cc1occc1C(=O)NNC(=S)NCc1ccccc1,2,27,2,2,-14,-12,i,-9,
O=C(NCC(c1cccs1)N1CCOCC1)c1ccccc1NS(=O)(=O)c1ccc(Cl)cc1 (configuration not stated),-13,2,-4,-6,.,30,i,27,
CCOC(=O)C(=Cc1ccc(-n2ccnc2)cc1)C(=O)OCC,5,0,-6,-13,-18,11,i,86*,
CC(=O)n1cc(Nc2ccc([N+](=O)[O-])cc2)c2ccccc21,-12,3,8,1,.,1,i,-9,
O=C(OCC(=O)N1CCCC1)c1cccs1,0,8,2,4,1,.,i,.,
# (continued)
SMILES,eIF4H FP inh,PABP FP inh,MT1-MMP act inh,MT1-MMP act inh RFP,Yeast UUG start,Env fusion inh,Rce1 inh,CSC inhib,others
CC1CCN(C(=O)CSc2nc3ncccc3[nH]2)CC1,-7,1,-4,0,-15,-26,i,-4,
COc1ccc(-c2cc(C(=O)N3CCCCCC3)c3cc(C)ccc3n2)cc1,-10,5,2,-2,-2,8,i,18,
Cn1c(CC2Sc3ccccc3NC2=O)nnc1SCC(=O)c1ccc(Cl)cc1 (configuration not stated),-4,-6,-1,2,.,15,i,-9,
CC(C)c1ccc(N2C(=O)/C(=C/N(C)C)SC2=S)cc1,-3,-11,-21,63,.,-1,i,22,

# In the list so far, 10 contain two or more sulfur atoms:
SMILES,eIF4H FP inh,PABP FP inh,MT1-MMP act inh,MT1-MMP act inh RFP,Yeast UUG start,Env fusion inh,Rce1 inh,CSC inhib,others
CSc1ccc(S(=O)(=O)NCC(=O)OCC(=O)NC2(C#N)CCCCC2)cc1[N+](=O)[O-],.,.,-2,5,7,-11,i,-3,
CCS(=O)CCSC(=N)N (configuration not stated),-6,5,0,6,-14,.,i,-18,
CCc1ccc2nc(NC(=O)C3CSC4(C)CCC(=O)N34)sc2c1 (configuration not stated),.,.,-2,4,-8,-42,i,14,
COc1ccc(OC)c(Nc2nc(-c3sc(C)nc3C)cs2)c1,-8,-6,4,1,1,-60,i,21,
C=CCn1c(NC(=O)c2ccc(Br)o2)c(C(=O)OCC)sc1=S,-1,10,1,6,3,.,.,.,
Cc1cc(NS(=O)(=O)c2ccc(NC(=S)Nc3ccc(Cl)cc3C)cc2)no1,10,5,3,5,.,-2,i,-2,
CCOC(=O)c1cnc(SC)nc1Oc1cccc(NS(=O)(=O)c2ccc(Cl)cc2)c1,3,19,-8,-11,-4,-34,i,32,
O=C(NCC(c1cccs1)N1CCOCC1)c1ccccc1NS(=O)(=O)c1ccc(Cl)cc1 (configuration not stated),-13,2,-4,-6,.,30,i,27,
Cn1c(CC2Sc3ccccc3NC2=O)nnc1SCC(=O)c1ccc(Cl)cc1 (configuration not stated),-4,-6,-1,2,.,15,i,-9,
CC(C)c1ccc(N2C(=O)/C(=C/N(C)C)SC2=S)cc1,-3,-11,-21,63,.,-1,i,22,
